Screens (PubChem BioAssay)
BJeLR lethal: kills HRASV12-expressing BJeLR cells. BJeLR (HRASV12) viability, CellTiter-Glo ATP luminescence, 48 h; reference of the scale not given here. 300,000 compounds, 0.17% hits. inhibition, % (test concentration not listed). AID 1554;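 active = replicate mean above 50%; inconclusive = above 50% but judged a plate artefact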;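 note: 50 nL library stock added to about 25 µL; numbers are from one replicate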
PrP UTR inh: inhibition of PrP 5' UTR reporter expression | 340,000 compounds, 0.35% hits | AID 488862 | inhibition, % (concentration not given with the values) | cell-based PrP 5' UTR mRNA reporter, plate reader;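 active = every replicate at 50% or more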;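 note: 0 = median of the neutral control wells; tested in H4 reporter cells; numbers are from one replicate; inactives centre near -14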
Sa RN4220 lethal: kills Staphylococcus aureus RN4220 | S. aureus RN4220 growth, OD600, 16 h | inhibition, % (test concentration not listed) | 330,000 compounds, 0.33% hits | AID 1259311;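 active = z-score of -3 or lower and OD600 up to 0.18 on both plates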;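 note: plate controls were untreated cells for no effect and reference antibiotic for full effect; stock transfer was 100 nL into about 80 µL; one replicate is shown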
Sa ugtP lethal: kills S. aureus RN4220 lacking UgtP | S. aureus RN4220 ugtP deletion, OD600 growth, 16 h; some inactives read as strong as hits | growth inhibition, % (test concentration not listed) | 330,000 compounds, 0.54% hits | AID 1259309;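 active = z-score under -3 and OD600 up to 0.15 on both plates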;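 note: plate controls were untreated wells for no effect and antibiotic for full effect; wells of about 80 µL received 100 nL stock; the first replicate is given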
Bead autofluor: flagged as autofluorescent in microsphere protease counterscreen. compound autofluorescence counterscreen, microsphere flow cytometry; active compounds read high. fluorescence intensity (no concentration beside the values). 360,000 compounds, 3.1% hits;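 active = at least 3 SD above the mean of all compounds, about 16000 in these data; inconclusive = too few beads counted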;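 note: 100 nL of 1 mM stock went into each well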
Mtb hypoxia rep: inhibitors of hypoxia-regulated fluorescent reporter in Mycobacterium tuberculosis | M. tuberculosis hypoxia-regulated fluorescent reporter, fluorescence | AID 1159583 | 300,000 compounds, 0.1% hits | fluorescence inhibition, % (no concentration beside the values);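 active = 35 to 45% if threefold the growth effect, above 45% if 1.5-fold the growth effect; inactive = the rest, general growth blockers included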;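 note: wells of about 50 µL received 100 nL stock; 0% = vehicle wells and 100% = reference inhibitor wells; whole bacteria with a GFP reporter of the hypoxia response; strong numbers were not always called active; many hits fall short of the cut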
Mtb hypoxia rep growth: also measured in Mtb hypoxia rep; calls as there; growth inhibition, %; measured here: M. tuberculosis growth (absorbance);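 0% = vehicle and 100% = reference antibiotic; read after six days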
* hit, by the source's call; u = inconclusive; x = no result given.

SMILES	BJeLR lethal	PrP UTR inh	Sa RN4220 lethal	Sa ugtP lethal	Bead autofluor	Mtb hypoxia rep	Mtb hypoxia rep growth
CC(C)(C)C(=O)Nc1ccccc1C(=O)Nc1ccccn1	9	-6	3.4	6	4895	5	10
COc1ccc(/C=C2\SC(=O)N(CC(=O)Nc3ccc(O)cc3)C2=O)cc1OC	5	-6	0.0	12	3777	3	2
COc1cccc(C(=O)N(Cc2nc(-c3cccc(C)c3)no2)C(C)C)c1OC	7	-10	-2.9	0	4659	x	x
COc1ccc(C2C(C#N)=C(N=CN3CCN(C)CC3)OC3=C2C(=O)CC(C)(C)C3)cc1 (configuration not stated)	x	x	-6.9	7	x	1	5
COC(=O)c1ccc(Cn2nnc3ccccc32)cc1	-7	-13	3.4	10	5583	21	15
COc1cccc(N(CC(=O)N2CCN(C)CC2)S(=O)(=O)c2ccc(C)cc2)c1	12	-8	1.9	1	3905	x	x
O=C(Cn1c(NCCO)nc2ccccc21)c1ccc(Cl)cc1	-3	10	-3.1	-2	2502	x	x
COc1ccc(NC(=O)N2CCOCC2)cc1	-9	-19	2.6	6	3126	-4	-1
COc1ccc(-c2nnc(SCc3csc(N)n3)n2C)cc1	2	x	2.5	-1	10614	0	0
Cc1nc(NC(=O)c2csc3ccccc23)sc1C	-7	-92	-5.5	-18	10859	2	4
Cc1nc2c(c(=O)[nH]1)C(c1ccccc1Cl)c1c(c3ccccc3oc1=O)O2 (configuration not stated)	-5	x	3.4	-3	x	9	5
COc1ccc(NC(=O)CCN2CCN(S(=O)(=O)c3ccc(C(C)C)cc3)CC2)cc1	2	2	-1.0	0	12325	-1	2
CCCc1[nH]nc2c1C(c1ccsc1)C(C#N)=C(N)O2 (configuration not stated)	-2	-27	7.6	12	2184	3	5
Cc1ccc(S(=O)(=O)N2CC(O)CC2C(=O)OCC(=O)c2ccccc2Cl)cc1C (configuration not stated)	-6	-5	7.2	-5	8829	11	1
CCOc1ccc(C=NNc2ccc(Cl)nn2)c(O)c1	x	x	4.3	9	x	8	3
O=C(Nc1ccccc1)c1cc2n(n1)C(C(F)(F)F)CC(C1CC1)N2 (configuration not stated)	-5	-38	7.6	3	2206	8	9
CCOc1ccccc1CNC(=O)C1CCN(C(=O)c2sccc2-n2cccc2)CC1	-12	-17	-20	2	2824	21	-18
FC(F)(F)Oc1ccc(C2NCc3ccccc3-n3cccc32)cc1 (configuration not stated)	4	-30	18	94*	4034	-11	20
O=C(NCCCn1ccnc1)c1cc(-c2ccncc2)nc2ccccc12	-4	-29	2.2	14	4595	9	-5
CCOC(=O)N1CCN(Cc2nc(-c3ccccc3)no2)CC1	5	-24	-0.6	11	3206	x	x

In the list so far, 2 contain a CF3 group.
SMILES	BJeLR lethal	PrP UTR inh	Sa RN4220 lethal	Sa ugtP lethal	Bead autofluor	Mtb hypoxia rep	Mtb hypoxia rep growth
O=C(Nc1ccccc1)c1cc2n(n1)C(C(F)(F)F)CC(C1CC1)N2 (configuration not stated)	-5	-38	7.6	3	2206	8	9
FC(F)(F)Oc1ccc(C2NCc3ccccc3-n3cccc32)cc1 (configuration not stated)	4	-30	18	94*	4034	-11	20

Remaining list, next part:
SMILES	BJeLR lethal	PrP UTR inh	Sa RN4220 lethal	Sa ugtP lethal	Bead autofluor	Mtb hypoxia rep	Mtb hypoxia rep growth
CC1=NN(C(N)=S)C(=O)C1N=Nc1ccccc1 (configuration not stated)	-5	-35	2.3	-3	4044	19	-3
O=C(NC1CCC(=O)N(CCSc2ccccc2)CC1)OCc1ccccc1 (configuration not stated)	-6	-9	-0.1	-5	2966	-13	1
O=C(/C=C/c1cccs1)NC(=S)NNC(=O)Cc1cccs1	0	-25	7.1	-3	3458	7	12
C=CCNC(=O)c1nn2cccnc2c1Cl	-2	-5	0.5	0	5706	x	x
COc1ccc(N(CC(=O)Nc2ccc(F)c(F)c2)S(=O)(=O)c2c(C)n[nH]c2C)cc1	-9	-8	4.5	12	4629	5	4
CN1CCN(N=Cc2ccc(-c3ccccc3)cc2)CC1	x	x	6.5	-2	x	9	1
O=C(NN=Cc1ccoc1)c1ccc(Cl)cc1Cl	x	x	2.5	3	x	3	0
CC(=O)N1N=C2C3CCN(CC3)C2C1c1ccccc1 (configuration not stated)	6	-14	2.0	10	6132	2	-1
CCCN1C(=O)CC(C(=O)OC)=C1C	0	-4	-0.7	5	3658	x	x
NC(=O)C1CC2(C1)CC(C(N)=O)C2 (configuration not stated)	x	x	-0.2	-3	3200	-2	3
O=C(CSc1ccc(-c2ccccn2)nn1)NC1CCCCC1	3	-25	4.9	0	4419	13	1
NNC(=O)C1CCCN1S(=O)(=O)c1ccc(Cl)cc1 (configuration not stated)	0	-28	1.0	3	4945	1	-7
CC(C)OCCCn1c(=S)[nH]c2cc3c(cc2c1=O)OCO3	-5	5	3.4	5	10232	3	1
COn1c(-c2ccccc2)c(C=O)c2ccccc21	-10	2	6.6	-2	37117*	13	-3
COc1ccc(NC(=O)N(CCCN2CCOCC2)Cc2cccnc2)c(OC)c1	1	6	1.6	11	5903	8	-2
CCOc1ccccc1NC(=O)c1cc(S(=O)(=O)NCc2ccco2)ccc1F	9	-9	4.1	-7	5698	-13	-5
COCCn1c(Cc2ccccc2)nnc1SCC(=O)Nc1oc(C)c2c(C)n[nH]c(=O)c12	0	10	1.6	4	6916	-6	-2
Cc1ccc(CNC(=O)c2ccc([N+](=O)[O-])o2)cc1	-3	-17	36	49	x	x	x
O=C(CC12CC3CC(CC(C3)C1)C2)N/N=C/c1ccncc1	-2	3	x	x	2423	x	x
Cc1ccc(S(=O)(=O)CNC(=O)c2ccccc2)cc1	1	-24	-0.7	0	4146	x	x

5 compounds drawn at random from the list so far:
SMILES	BJeLR lethal	PrP UTR inh	Sa RN4220 lethal	Sa ugtP lethal	Bead autofluor	Mtb hypoxia rep	Mtb hypoxia rep growth
NC(=O)C1CC2(C1)CC(C(N)=O)C2 (configuration not stated)	x	x	-0.2	-3	3200	-2	3
Cc1ccc(S(=O)(=O)CNC(=O)c2ccccc2)cc1	1	-24	-0.7	0	4146	x	x
CN1CCN(N=Cc2ccc(-c3ccccc3)cc2)CC1	x	x	6.5	-2	x	9	1
COc1ccc(NC(=O)N(CCCN2CCOCC2)Cc2cccnc2)c(OC)c1	1	6	1.6	11	5903	8	-2
Cc1ccc(CNC(=O)c2ccc([N+](=O)[O-])o2)cc1	-3	-17	36	49	x	x	x

Following part.
SMILES	BJeLR lethal	PrP UTR inh	Sa RN4220 lethal	Sa ugtP lethal	Bead autofluor	Mtb hypoxia rep	Mtb hypoxia rep growth
Cc1ccc(NC(=O)c2c(C)noc2C)cc1	-1	3	1.7	1	2227	x	x
CCCCn1c(SCC(=O)c2ccc3c(c2)OCCO3)nnc1-c1ccco1	-8	-11	11	-14	2943	4	6
COC(=O)c1sccc1NC(=O)c1cccc(F)c1	1	-12	8.4	11	5446	6	9
COc1ccc(C=NNc2ncnc3c2[nH]c2ccccc23)c(OC)c1OC	x	x	1.0	5	x	16	3
COC(=O)c1ccc(N2CCN(CC(=O)c3ccc(-c4ccccc4)cc3)CC2)c([N+](=O)[O-])c1	0	-24	28	-2	2695	-10	3
Nn1c(SCC(=O)Nc2ccc3c(c2)OCO3)nnc1-c1ccncc1	10	2	x	x	2650	x	x
CN(CC(=O)Nc1cccc2c1CCCC2)S(=O)(=O)c1ccccc1	-9	0	2.2	3	9162	-2	-3
Cc1cc(C)cc(NC(=O)Nc2cccnc2)c1	0	-8	0.4	0	3866	2	4
O=C(Cc1ccc([N+](=O)[O-])cc1)c1ccccc1	x	-5	4.8	5	3427	x	x
CC(=O)Nc1sc2c(c1C#N)CCC(C)C2 (configuration not stated)	8	-46	6.3	-6	4639	13	-10
O=C1CCCc2ccccc2N1Cc1cccc(Cl)c1	-2	-16	7.6	18	4192	x	x
S=C(NCCN1CCOCC1)Nc1ccc(Cl)c(Cl)c1	-8	-35	0.6	-1	2650	3	2
CCOC(=O)c1cnn(CC2CCCCC2)c1N	5	-16	-2.3	-6	u	0	13
O=S(=O)(Nc1ccc2c(c1)CCC2)c1cccs1	-1	-26	7.0	0	9755	1	3
O=C(NC1CCCCC1)N1CCCC(c2nc(-c3ccc(S(=O)(=O)N4CCCC4)cc3)no2)C1 (configuration not stated)	-15	-11	0.2	-3	9908	-13	-4
O=C1CN(C(=O)COc2ccc([N+](=O)[O-])cc2Cl)c2ccccc2N1	x	-21	2.1	5	u	3	3
O=C(c1cc(-c2ccncc2)nc2ccccc12)N1CCN(S(=O)(=O)/C=C/c2ccccc2)CC1	10	-8	x	x	3173	x	x
O=C(Nc1ccccc1C(=O)N1CCOCC1)c1noc2c1CCCC2	-1	-30	1.1	-3	9571	5	1
CC(C)CNC(=O)CC(=O)N/N=C/c1ccc(Br)cc1	-3	-21	x	x	13078	x	x
O=C1CC(NNC(=O)c2ccc(Br)cc2)C(=O)N1 (configuration not stated)	-1	-22	-0.1	2	3778	-8	3
CCOc1ccccc1NC(=O)CCNS(=O)(=O)c1cccc2nonc12	-5	-22	2.6	2	4848	-3	3
Cc1ccc2c(c1)C(N1CCCC1=O)CC(c1ccco1)N2 (configuration not stated)	5	-21	0.4	7	3781	x	x
CCOC(=O)C1(CCc2ccccc2)CCN(C(=O)c2cnc(C)cn2)CC1	1	-7	2.9	7	4954	3	4
COc1ccc(C(CCN2CCOCC2)c2c(OC)cc(OC)c3c(C)cc(=O)oc23)cc1 (configuration not stated)	5	-15	4.0	-6	3645	8	9
COc1cc(C(C(=O)NCc2ccccc2)N(C(=O)c2snc(C(N)=O)c2N)C2CCCC2)cc(OC)c1OC (configuration not stated)	-1	-8	-1.6	2	5749	-5	13
COc1ccc(N2C(=O)C(CC(N)=O)N(NC(=O)c3cccc(OC)c3)C2=S)cc1 (configuration not stated)	4	-18	3.7	2	4228	8	8
C=C1c2cccc(C(F)(F)F)c2O[C@H](C(=O)OCC)[C@H]1OC	x	-6	3.8	-1	3726	-4	-3
O=C(/C=C/c1ccccc1)NC(NC(=S)Nc1ccc(Cl)cc1)C(Cl)(Cl)Cl (configuration not stated)	-4	-2	75	74	3583	5	3
CCC1=NN(C(=O)CCc2ccc3c(c2)OCO3)C(O)(C(F)(F)F)C1 (configuration not stated)	0	-17	3.3	0	2232	12	10
CC(C)(C)c1ccc(/C=C/C(=O)O)s1	-12	-15	x	x	2591	x	x
CC=CC(=O)Nc1cccc(C2=NOC3(C2)CC(C(N)=O)N(C(=O)C2(C)CC2)C3)c1 (configuration not stated)	x	x	2.0	1	x	0	2
Cc1cc(C)cc(C(=O)NC2C(=O)N3C(C(=O)O)=C(CSc4nnc(C)s4)CSC23)c1 (configuration not stated)	4	-15	99*	100*	4467	4	2
Cc1ccccc1-n1c(SCC(=O)c2cc(C)n(C)c2C)nnc1-c1cccnc1	1	-6	4.1	-2	4476	2	10
CCn1nc(-c2cccs2)nc2c(=O)n(C)c(=O)nc1-2	x	-9	99*	100*	x	4	-15
CCC(=O)Nc1ncc2c(n1)CC(c1ccco1)CC2=O (configuration not stated)	1	-28	-0.5	-2	11055	-7	-3
CCCc1nc(SCC(=O)N2CCN(c3ccccc3)CC2)c2c(=O)n(C)c(=O)n(C)c2n1	8	-31	17	2	6613	-20	6
CN1C(=O)C(CC(=O)NCCc2ccccc2)N(NC(=O)c2ccc(Cl)cc2)C1=S (configuration not stated)	-3	-29	1.4	1	3636	-3	2
CCOC(=O)Nc1cccc2ccccc12	1	-5	1.0	0	11384	7	17
CC(C)(C)c1cc(C(=O)Nc2ccc(F)cc2)n(Cc2ccc(F)cc2)n1	-2	-11	-5.1	-27	4198	2	-5
O=C(c1ccc(Cl)cc1)C1CCN(C(=S)Nc2ccccc2)CC1	x	-5	-0.7	11	3065	11	3
COc1ccc(-c2noc(N3CCC(C(=O)N4CCN(c5ccccn5)CC4)CC3)n2)cc1	-8	-84	4.3	-2	4468	4	9
Cc1cc(=O)oc2cc(OC(=O)c3ccco3)ccc12	3	-12	10	8	4108	8	7
Nc1ncncc1-c1ccc(Cl)cc1	-10	-14	2.1	-1	6300	12	13
CC(C)Oc1cccc(C(=O)NC(=S)N2CCN(c3ccc(C(F)(F)F)cc3[N+](=O)[O-])CC2)c1	0	-14	-11	-9	2683	x	x
CCC(=O)N(Cc1cc(=O)[nH]c2ccccc12)c1ccccc1OC	8	-17	0.6	1	3719	-6	12
COc1ccc(OC)c(C(=O)Cn2cnc3ccccc3c2=O)c1	2	-16	-1.2	12	3446	8	-5
O=C(NNC(=O)c1cc(Cl)ccc1[N+](=O)[O-])c1csc(N2CCOCC2)n1	-13	-17	0.9	6	u	6	3
